MLL AF4-AF9 inh – inhibitors of human MLL-AF4/AF9 interaction; AlphaScreen, biotin-AF4 peptide binding to FLAG-AF9; inhibition, % at 10 µM; actives 0.47% (n = 350,000);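 active = every replicate reaching a set inhibition limit, whatever the replicate mean, cut at about 25% in these data; inconclusive = mean inhibition reaches that limit but some replicates miss it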;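 note: 0% = plate neutral control median and 100% = total signal loss; the record names both 10 and 1 µM as test concentration; the first replicate is given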
Target sequence (P42568 whole entry, looked up): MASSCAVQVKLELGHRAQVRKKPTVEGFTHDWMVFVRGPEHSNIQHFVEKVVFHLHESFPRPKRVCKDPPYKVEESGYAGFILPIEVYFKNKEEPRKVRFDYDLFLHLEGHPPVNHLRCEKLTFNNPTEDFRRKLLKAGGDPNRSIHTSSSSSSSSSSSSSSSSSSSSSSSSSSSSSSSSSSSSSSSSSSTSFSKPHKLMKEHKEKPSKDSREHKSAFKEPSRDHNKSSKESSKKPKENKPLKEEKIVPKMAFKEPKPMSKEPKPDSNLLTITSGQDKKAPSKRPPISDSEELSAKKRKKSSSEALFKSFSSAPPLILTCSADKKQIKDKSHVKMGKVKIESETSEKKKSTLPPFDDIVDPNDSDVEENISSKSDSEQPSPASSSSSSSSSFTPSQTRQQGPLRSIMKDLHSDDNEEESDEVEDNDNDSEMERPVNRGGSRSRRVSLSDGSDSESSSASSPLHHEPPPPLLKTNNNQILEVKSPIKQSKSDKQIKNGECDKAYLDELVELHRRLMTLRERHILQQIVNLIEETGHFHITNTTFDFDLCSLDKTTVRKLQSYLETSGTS
rRNA inh HTS – selective bacterial rRNA inhibition in E. coli. E. coli WT GFP vs humanized-ribosome RFP mutants, fluorescence, 24 h; active compounds read low; DMSO median 0, no signal -100. GFP signal change (wild-type ribosome), % (test concentration not listed). actives 1.6% (n = 350,000). AID 720706;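 active = significant combined selectivity score with lowered wild-type GFP, culture density cut under 30%, mutant RFP and density less affected; inactive = any of these conditions unmet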; note: one replicate is shown; some compounds called inactive have numbers as strong as hits
rRNA inh HTS OD600 – further read-out of rRNA inh HTS, marked with its call; OD600 change, %; measured here: OD600 growth;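 optical density of the mix in the first replicate; 0 = DMSO median and -100 = no signal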
rRNA inh HTS RFP – further read-out of rRNA inh HTS, marked with its call; RFP signal change, %; measured here: RFP humanized mutant strains;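 first replicate; 0 = DMSO median and -100 = no signal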
The depositor's hits bear a star; ? = inconclusive; & = joins results of further samples. Some of the compounds tested. The share of hits here may be higher or lower than overall.

SMILES	MLL AF4-AF9 inh	rRNA inh HTS	rRNA inh HTS OD600	rRNA inh HTS RFP
CC(=O)N(C)C[C@H]1Oc2cc(C#Cc3cccc(F)c3)ccc2S(=O)(=O)N([C@H](C)CO)C[C@@H]1C	-1.9	-9	-15	8.4
COC(=O)C[C@@H]1CC[C@@H]2[C@H](COc3ccc(NC(=O)c4ccc(OC)cc4)cc3C(=O)N2C)O1	-0.5	-2	-9	0.3
CCCC#Cc1ccc([C@H]2[C@@H](CO)N3CCCCN(C(=O)NC4CCCC4)C[C@@H]23)cc1	-1.2	-56	-57	-4.4
COc1ccc2c3c(n(C)c2c1)[C@@H](CO)N(C(=O)C1CC1)CC31CCN(Cc2cccc(F)c2)CC1	?	-2	-8	1.7
CCS(=O)(=O)N1[C@H](CO)[C@@H](c2ccccc2)C12CN(C(=O)C1CCCC1)C2	-1.9	1	7	1.2
O=C(c1ccncc1)N1C[C@@H]2N[C@H](C1)C2c1ccc(-c2cccnc2)cc1 (some centres not stated)	-2.8	2	12	0.2
O=C(c1ccccc1F)N1CC[C@H]2[C@H](CO)Nc3ccc(-c4cccc(F)c4)cc3[C@H]21	12	-37	-65	1.9
N#C[C@@H]1[C@@H](c2ccccc2-c2ccc(F)cc2)[C@H](CO)N1C(=O)NC1CCCC1	-0.6	-7	-42	1.0
O=C(Cc1ccccn1)N[C@H]1CC[C@H](CCn2cc(-c3ccc(F)cc3)nn2)O[C@@H]1CO	-2.9	0	1	-0.4
O=C(NC1CCC1)[C@H]1[C@H](CO)[C@H]2Cn3c(ccc(-c4ccncc4)c3=O)[C@H]2N1CCc1ccccc1	-0.4	0	1	3.1
C/C=C/c1ccc2c(c1)[C@H]1[C@H](CCN1S(=O)(=O)c1ccccc1C)[C@@H](CO)N2	-0.6	7	14	-3.3
O=C(C[C@@H]1CC[C@H]2[C@@H](COC[C@H](O)CN2C(=O)c2ccncc2)O1)NCc1ccc(-c2ccccc2)cc1	-1.1	0	4	-3.2
O=C(O)C[C@H]1C[C@H]2c3cc(NS(=O)(=O)c4ccccc4)ccc3O[C@H]2[C@H](CO)O1	-1.2	2	-7	-0.3
C/C=C/c1ccc(C2[C@H]3CNC[C@@H]2N3Cc2cc(F)ccc2F)cc1 (some centres not stated)	4.3	-1&-2	-1&-16	3.0&1.7
O=C(NCCN1CCCC1)[C@@H]1[C@@H](CO)[C@@H]2Cn3c(cccc3=O)[C@@H]2N1Cc1ccccn1	1.9	3	15	1.3
CCN1CC(=O)N2[C@H](CO)[C@H](c3ccc(-c4ccccc4F)cc3)[C@@H]2C1	-0.1	4	-2	0.3
CCCC#Cc1ccc([C@H]2[C@@H](CO)N(C(=O)NC(C)C)[C@H]2CNC(C)=O)cc1	-3.6	-2	-7	-1.3
O=C(C1CCOCC1)N1CC(=O)N2[C@@H](CO)[C@@H](c3ccc(-c4ccccc4F)cc3)[C@@H]2C1	-0.9	-2	0	7.1
COc1cccc(-c2ccc([C@H]3[C@H]4CN(C(=O)C5CCCC5)CC(=O)N4[C@H]3CO)cc2)c1	11	5	-6	4.6
C[C@@H]1CCCCO[C@@H](CN(C)Cc2ccc(C(F)(F)F)cc2)[C@H](C)CN([C@@H](C)CO)C(=O)c2cc(NS(=O)(=O)c3ccccc3)ccc2O1	5.2	2	-14	13
O=C(C1CCC1)N1CC(=O)N2[C@@H](CO)[C@@H](c3ccc(-c4ccccc4F)cc3)[C@@H]2C1	-3.7	-4	-8	-0.4
O=C(CCN1CCCCC1)NCC[C@@H]1CC[C@H](NC(=O)C2CCCCC2)[C@H](CO)O1	-1.9	1	-4	1.1
O=C(c1ccccn1)N1CC(=O)N2[C@H](C1)[C@@H](c1ccc(C#CCc3ccccc3)cc1)[C@@H]2CO	-0.4	-2	-2	2.8
C/C=C/c1ccc([C@H]2[C@@H](CO)N(CC3CC3)C23CN(S(=O)(=O)CC)C3)cc1	-1.7	-1	-1	-2.7
CO[C@H]1CN(C)C(=O)c2ccc(NC(C)=O)cc2OC[C@H](C)N(C(=O)C2CCC2)C[C@H]1C	-11	1	5	0.0

Results in MLL AF4-AF9 inh and rRNA inh HTS RFP, for some of the entries so far:
structure,MLL AF4-AF9 inh,rRNA inh HTS RFP
COc1ccc2c3c(n(C)c2c1)[C@@H](CO)N(C(=O)C1CC1)CC31CCN(Cc2cccc(F)c2)CC1,?,1.7
CCS(=O)(=O)N1[C@H](CO)[C@@H](c2ccccc2)C12CN(C(=O)C1CCCC1)C2,-1.9,1.2
O=C(c1ccncc1)N1C[C@@H]2N[C@H](C1)C2c1ccc(-c2cccnc2)cc1 (some centres not stated),-2.8,0.2
O=C(c1ccccc1F)N1CC[C@H]2[C@H](CO)Nc3ccc(-c4cccc(F)c4)cc3[C@H]21,12,1.9

Further structures:
SMILES	MLL AF4-AF9 inh	rRNA inh HTS	rRNA inh HTS OD600	rRNA inh HTS RFP
O=C(C1CCC1)N1CC(=O)N2[C@H](CO)[C@H](c3ccc(-c4ccccc4F)cc3)[C@@H]2C1	-3.2	1	-3	2.1
CCCNC(=O)N1CC(=O)N2[C@@H](CO)[C@H](c3ccc(C#Cc4cccc(F)c4)cc3)[C@@H]2C1	-1.8	0	-43	39
CC(=O)N1CC(=O)N2[C@@H](CO)[C@@H](c3ccc(-c4ccc(C#N)cc4)cc3)[C@@H]2C1	-5.0	3	17	-0.8
O=C(c1ccc(F)cc1)N1CC(=O)N2[C@H](CO)[C@H](c3ccc(C#CC4CCCCC4)cc3)[C@H]2C1	5.0	-6	-34	26
COc1ccccc1NC(=O)N1C[C@@H]2N[C@H](C1)C2c1ccc(-c2ccccc2)cc1 (some centres not stated)	0.0&3.2	-7&-4	-9&-2	1.5&0.4
Cc1ccc(-c2ccc([C@H]3[C@H](CO)N4C(=O)CN(C(=O)Nc5cccc(F)c5)C[C@@H]34)cc2)cc1	-5.3	-10	-39	25
CS(=O)(=O)N1CC(=O)N2[C@H](CO)[C@H](c3ccc(C#Cc4ccccc4)cc3)[C@@H]2C1	-2.5	2	1	-2.3
COc1ccc(NC(=O)N(C)C[C@H]2Oc3c(NC(=O)NC4CCCCC4)cccc3C(=O)N([C@@H](C)CO)C[C@H]2C)cc1	3.8	-2	5	-0.2
Cc1noc(C)c1S(=O)(=O)N(C)C[C@@H]1Oc2ccc(NC(=O)Nc3ccc4c(c3)OCO4)cc2CC(=O)N([C@@H](C)CO)C[C@H]1C	11	-2	-13	0.2
COCC#Cc1ccc([C@H]2[C@H]3CN(C(=O)C4CC4)CC(=O)N3[C@H]2CO)cc1	-4.9	2	14	-2.0
CCN1[C@@H]2c3ccc(C4=CCCCC4)c(=O)n3C[C@@H]2[C@@H](CO)[C@@H]1C(=O)NC1Cc2ccccc2C1	5.5	-15	-32	8.3
COc1ccc(C#Cc2ccc3c(c2)[C@H]2[C@H](CCN2C(=O)c2ccccn2)[C@H](CO)N3)cc1	4.9	-1	8	11
N#C[C@@H]1[C@H](c2ccccc2C2=CCCCC2)[C@@H](CO)N1C(=O)Cc1ccncc1	-1.9	-9	-9	2.4
O=C(C1CCCCC1)N1CC(=O)N2[C@H](C1)[C@H](c1ccc(-c3cccnc3)cc1)[C@@H]2CO	4.7	-2	12	-3.9
CN(C)CC(=O)N1CC(=O)N2[C@@H](CO)[C@H](c3ccc(-c4ccc(C#N)cc4)cc3)[C@@H]2C1	-0.1	0	7	-0.9
COc1ccccc1NC(=O)N1CC(=O)N2[C@H](CO)[C@H](c3ccc(C#CC4CC4)cc3)[C@@H]2C1	1.3	-1	0	-2.8
CN(C)C(=O)c1cccc(-c2ccc([C@H]3[C@H]4CN(C(=O)C5CC5)CC(=O)N4[C@H]3CO)cc2)c1	-5.7	8	20	-1.6
O=C(C1CCOCC1)N1CC(=O)N2[C@H](C1)[C@@H](c1ccc(C#CCc3ccccc3)cc1)[C@@H]2CO	1.6	0	2	1.2
COCC(=O)N1CC2(C1)[C@@H](c1ccccc1)[C@@H](CO)N2C(=O)c1ccccc1	-3.8	4	6	-2.0
CC(C)CC#Cc1ccc([C@@H]2[C@@H](CO)N3CCCCN(C(=O)Nc4ccccc4)C[C@@H]23)cc1	-1.6	-17	-35	33
C/C=C/c1ccc([C@@H]2[C@H]3CN(C(=O)c4cnccn4)CC(=O)N3[C@H]2CO)cc1	0.4	3	8	4.0
O=C(O)CN1C(=O)/C(=C/c2ccc(SCc3ccccc3)o2)SC1=S	-2.1	3	1	6.4
COc1ccc(CN(C)C[C@H]2OCCCC[C@H](C)Oc3ccc(NS(=O)(=O)c4ccc(C)cc4)cc3C(=O)N([C@H](C)CO)C[C@H]2C)cc1	11	-8	-43	20
CN(C)C(=O)c1cccc(-c2ccc([C@@H]3[C@H]4CN(C(=O)C5CC5)CC(=O)N4[C@H]3CO)cc2)c1	-4.5	4	21	2.6
CC(=O)Nc1ccc2c(c1)C(=O)N(C)[C@H]1CC[C@H](CC(=O)Nc3ccc4c(c3)CCC4)O[C@@H]1CO2	-1.7	-6	-8	1.9

(continued)
SMILES	MLL AF4-AF9 inh	rRNA inh HTS	rRNA inh HTS OD600	rRNA inh HTS RFP
O=C(C[C@H]1C=C[C@H](NC(=O)Cc2ccccn2)[C@H](CO)O1)NCCc1ccccc1	-5.3	0	-1	-2.2
CCC(=O)N[C@H]1CC[C@@H](CC(=O)NCC2CC2)O[C@H]1CO	-1.7	2	-4	-0.4
O=C([C@H]1[C@H](CO)[C@H]2Cn3c(ccc(C4=CCCC4)c3=O)[C@H]2N1Cc1nccs1)N1CCCCC1	-2.6	-4	-18	7.3
CC(C)CC#Cc1ccc([C@H]2[C@@H](CO)N3C(=O)CN(S(=O)(=O)c4cccc(F)c4)C[C@H]23)cc1	-1.0	6	1	1.8
O=C(NCC[C@H]1CC[C@H](NS(=O)(=O)c2ccc(F)cc2)[C@H](CO)O1)c1ccccc1F	-3.9	-6	-8	-5.2
N#Cc1ccc(-c2ccc([C@@H]3[C@@H](CO)N4C(=O)CN(C(=O)C5CC5)C[C@@H]34)cc2)cc1	-20	2	13	-1.4
O=C(Nc1ccc(F)cc1)N1CC(=O)N2[C@@H](CO)[C@@H](c3ccc(C#Cc4ccc(F)cc4)cc3)[C@@H]2C1	-0.1	-43	-64	-3.7
O=C(c1ccc(F)cc1)N1CC(=O)N2[C@H](CO)[C@H](c3ccc(/C=C/c4ccccc4)cc3)[C@@H]2C1	12	-6	-28	2.7
Cc1noc(C)c1NC(=O)Nc1ccc2c(c1)CC(=O)N([C@@H](C)CO)C[C@@H](C)[C@H](CN(C)S(C)(=O)=O)O2	-4.3	8	10	1.8
Cc1ccccc1-c1ccc(C2[C@@H]3CN(C(=O)C4CCCC4)C[C@H]2N3)cc1 (some centres not stated)	-0.3&6.4	-30&-58	-58&-77	11&-8.8
CN(C)C(=O)c1cccc(-c2ccc([C@H]3[C@@H](CO)N(C(=O)C4CCCC4)[C@H]3C#N)cc2)c1	-2.9	-3	5	-7.4
COCC(=O)Nc1ccc2c(c1)C(=O)N(C)C[C@@H](OC)[C@H](C)CN(C)[C@H](C)CO2	-11	2	-3	-2.9
COc1ccccc1C#Cc1ccc([C@@H]2[C@@H](C#N)N(C(=O)C3CCCCC3)[C@@H]2CO)cc1	2.6	1	0	0.4
CCCC#Cc1ccc([C@H]2[C@H]3CN(S(=O)(=O)c4ccccc4C)CC(=O)N3[C@H]2CO)cc1	0.5	0	-7	0.4
CN(C)CC(=O)N1[C@H](CO)[C@H](c2ccccc2)C12CN(C(=O)c1ccc(F)cc1)C2	-2.0	2	18	2.0
COc1ccccc1C(=O)Nc1ccc2c(c1)OC[C@@H](C)NC[C@@H](C)[C@@H](OC)CN(C)C2=O	-0.7	2	1	0.4
COc1cccc(CN2[C@@H]3CNC[C@H]2C3c2ccc(-c3ccc(C)cc3)cc2)c1 (some centres not stated)	-1.2	3	-12	-0.6
COc1ccc2c3c([nH]c2c1)[C@H](CO)N(C)CC31CN(S(=O)(=O)c2cccc(F)c2)C1	-4.7	-2	-6	-2.5
O=C(C1CC1)N1CC[C@@H]2[C@H](CO)Nc3ccc(C4=CCCCC4)cc3[C@@H]21	?	-8	-4	-4.6
Cc1ccccc1OCC(=O)OCC(=O)NC1CCCC(C)C1C (configuration not stated)	-12	10	7	0.5
COCC(=O)N1[C@H](C(=O)N2CCN(C)CC2)[C@@H](CO)[C@@H]2Cn3c(ccc(C4=CCCCC4)c3=O)[C@@H]21	-0.9	2	4	0.5
O=C(NC1CCCCC1)N1CC2(C1)[C@@H](c1ccccc1)[C@@H](CO)N2CC1CCOCC1	-1.5	1	22	2.5

Reprinted at random: 4 records from the list.
SMILES	MLL AF4-AF9 inh	rRNA inh HTS	rRNA inh HTS OD600	rRNA inh HTS RFP
O=C([C@H]1[C@H](CO)[C@H]2Cn3c(ccc(C4=CCCC4)c3=O)[C@H]2N1Cc1nccs1)N1CCCCC1	-2.6	-4	-18	7.3
COCC(=O)N1[C@H](C(=O)N2CCN(C)CC2)[C@@H](CO)[C@@H]2Cn3c(ccc(C4=CCCCC4)c3=O)[C@@H]21	-0.9	2	4	0.5
O=C(C[C@H]1C=C[C@H](NC(=O)Cc2ccccn2)[C@H](CO)O1)NCCc1ccccc1	-5.3	0	-1	-2.2
O=C(C1CC1)N1CC[C@@H]2[C@H](CO)Nc3ccc(C4=CCCCC4)cc3[C@@H]21	?	-8	-4	-4.6
